Source: PubChem
HSF-1 act: increases HSF-1 driven luciferase reporter signal; activation, % at 9 µM; NIH3T3-HGL HSF-1 luciferase reporter, MG132, 8 h; 100% = twice DMSO control signal; 300,000 compounds, 1.7% hits;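 active = mean replicate activation of at least 50% with a set share of replicates each reaching 50%; inconclusive = only one of those two conditions met; inactive = mean below 50% and too few replicates reaching it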;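 note: 0% = median of the neutral control wells and 100% = twice that signal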
HSF1 inhib: HSF1 inhibition | NIH3T3-HGL HSE-luciferase, MG132-induced, luminescence 8 h; active compounds read low | activity change, negative = inhibition, % at 7.5 µM (by protocol) | 300,000 compounds, 0.77% hits;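 active = more than half of replicate wells show activity change below -50%, luminescence cut by over half; inconclusive = some wells, but at most half, below -50%; inactive = no replicate well below -50%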;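 note: luciferase reports HSF-1 transcriptional activity via heat shock element; 0% = median of DMSO wells and -100% = zero luminescence signal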
HSP90 inh: HSP90 refolding inhibition in rabbit reticulocyte lysate; luciferase refolding luminescence, 3 h; inhibition, % at 5.6 µM; 290,000 compounds, 0.91% hits; AID 1789;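 active = inhibition above the screen-wide mean plus 3 SD, computed separately per campaign, cut at about 16% in these data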;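 note: 0% = DMSO wells and 100% = 60 µM geldanamycin wells; inhibitors lower the luminescence because luciferase stays unfolded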
Platelet DG rel: platelet dense granule release activity. human platelet-rich plasma, SFLLRN dense granule ATP release, luminescence. inhibition, %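 (compounds screened at 7.5 µM in platelet-rich plasma)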. 300,000 compounds, 0.22% hits;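 active = mean replicate score, as percent of positive control, at or above 50; inconclusive = mean below 50 but at least one replicate at or above 50; inactive = mean and every replicate below 50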
IEC-6 tox: kills IEC-6 intestinal cells in KLF5 counter-screen | inhibition, % at 5 µM | IEC-6 cytotoxicity, luminescence viability | 290,000 compounds, 0.78% hits; in the data active = inhibition above about 22%;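 note: 0% = plate median of test compound wells and 100% = cytotoxic reference compound wells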
aSyn UTR inh: MLPCN primary screen, SNCA 5' untranslated region. alpha-synuclein 5'UTR reporter, inhibitor activity. AID 1813. inhibition, % (tested at 7.5 µM). 300,000 compounds, 0.82% hits; in the data active = inhibition above about 60%; inconclusive = no clear call, values can overlap the other calls;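 note: H4 neuroglioblastoma cells stably carrying SNCA 5'UTR luciferase fusion; 0% = DMSO wells and 100% = positive control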
HDAC3 inh: blocks human histone deacetylase 3; inhibition, % at 8.3 µM; AID 2718; recombinant HDAC3, fluorogenic peptide/trypsin coupled, fluorescence; O15379; 320,000 compounds, 0.15% hits; in the data active = inhibition above about 26%, passing the limit was not always enough; inconclusive = no clear call, values can overlap the other calls
Target sequence (O15379 whole entry, looked up): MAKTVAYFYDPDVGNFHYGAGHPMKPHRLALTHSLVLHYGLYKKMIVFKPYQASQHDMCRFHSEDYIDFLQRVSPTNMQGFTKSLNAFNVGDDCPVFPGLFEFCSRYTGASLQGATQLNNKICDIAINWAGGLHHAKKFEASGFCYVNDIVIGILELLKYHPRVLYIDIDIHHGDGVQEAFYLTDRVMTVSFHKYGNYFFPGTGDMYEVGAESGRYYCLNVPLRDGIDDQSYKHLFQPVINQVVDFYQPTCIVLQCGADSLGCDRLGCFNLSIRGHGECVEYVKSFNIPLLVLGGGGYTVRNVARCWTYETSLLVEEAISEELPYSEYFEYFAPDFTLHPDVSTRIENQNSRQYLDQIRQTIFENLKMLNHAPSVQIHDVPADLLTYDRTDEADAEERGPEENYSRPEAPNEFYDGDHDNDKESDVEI
AI-2 QS mod: Vibrio harveyi AI-2 quorum sensing modulation; Vibrio harveyi JMH597 AI-2 luminescence/OD600 ratio, 9 h; active compounds read low; strain lacks LuxN and CqsS sensors; 0 = neutral-control median; activity change, % at 7.5 µM; 300,000 compounds, 0.4% hits; in the data active = activity change below about -75%, passing the limit was not always enough; inconclusive = no clear call, values can overlap the other calls;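 note: luminescence divided by OD600 gain over 9 h not by final OD600 alone; inactives centre near 13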
KLF5 inh: suppresses KLF5 promoter-driven expression; DLD-1 KLF5 promoter-luciferase reporter, luminescence; inhibition, % at 5 µM; 290,000 compounds, 0.23% hits; AID 1700;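 active = inhibition above a per-plate limit of that plate's mean compound inhibition plus 3 SD, cut at about 60% in these data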;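 note: 0% = DMSO wells and 100% = LY294002 at 200 µM; higher means less KLF5 promoter-driven luciferase light; inactives centre near -14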
* hit, by the source's call; ? = inconclusive; / = no result given; & = joins results of further samples. Only part of the results is shown, so the mix of outcomes need not match the whole.

SMILES	HSF-1 act	HSF1 inhib	HSP90 inh	Platelet DG rel	IEC-6 tox	aSyn UTR inh	HDAC3 inh	AI-2 QS mod	KLF5 inh
C[C@@H]1C(=O)O[C@H]2CC34[C@H]5C[C@@H](C(C)(C)C)[C@]36[C@@H](OC(=O)[C@@H]6O)O[C@@]4(C(=O)O5)[C@]21O (some centres undefined)	/	/	/	/	/	/	-5	/	/
CC1(C)Cc2c(sc3nc4n(c(=N)c23)CCCCC4)CO1	-6	5	2	8	6	-61	2	-1	-31
Cc1nc(NCCO)c(C#N)c2c1COC(C)(C)C2	-25	-5	8	12	-1	13	-7	12	-16
COC(=O)CN(c1nc(C)cc(OC)n1)S(=O)(=O)c1ccccc1	-21	-2	6	-15	-1	24	/	10	-2
CC(C)Cc1nc(N2CCN(C(=O)C(C)C)CC2)c(C#N)c2c1CCC2	11	2	1	3	-2	20	-7	3	-40
O=C(NCCO)c1cccc2c1C(=O)c1ccccc1-2	-6	-3	0	-5	2	2	-6	6	-6
C[n+]1ccccc1/C=N/O	17&9	3&4	3&3	-5&2	3&2	3&2	-5&-3	16&21	0&-3
CCCOc1ccc(Cc2nn[nH]n2)cc1	1	-2	2	-4	-2	4	-3	37	-10
Cc1cccc(NC(=O)c2c(C)cc(=O)oc2C)n1	2	-6	-1	2	1	-4	1	9	-4
Cc1cc(SCCC(=O)O)nc2ccccc12	1	-2	-3	1	-5	8	-7	15	-36

The closing 5 entries of the section before are carried over, then new ones follow.
SMILES	HSF-1 act	HSF1 inhib	HSP90 inh	Platelet DG rel	IEC-6 tox	aSyn UTR inh	HDAC3 inh	AI-2 QS mod	KLF5 inh
O=C(NCCO)c1cccc2c1C(=O)c1ccccc1-2	-6	-3	0	-5	2	2	-6	6	-6
C[n+]1ccccc1/C=N/O	17&9	3&4	3&3	-5&2	3&2	3&2	-5&-3	16&21	0&-3
CCCOc1ccc(Cc2nn[nH]n2)cc1	1	-2	2	-4	-2	4	-3	37	-10
Cc1cccc(NC(=O)c2c(C)cc(=O)oc2C)n1	2	-6	-1	2	1	-4	1	9	-4
Cc1cc(SCCC(=O)O)nc2ccccc12	1	-2	-3	1	-5	8	-7	15	-36
COc1ccc(-c2nn(C)c(=O)c3ccccc23)cc1NS(C)(=O)=O	1	12	-2	-6	3	19	-1	35	-7
CC(C)(C)c1ccc(OC(=O)Nc2ccc(O)c(C(=O)O)c2)cc1	-35	-37	12	-5	-1	23	-40	6	-22
CC1(C)Cc2c(sc3nc4n(c(=O)c23)CCC4)CO1	-2	-8	-1	-26	-1	12	-6	12	-40
NCCCC(N)(C(=O)O)C(F)F (centres undefined)	-12	-7	0	1	0	5	-1	16	-18
N#Cc1nc(COc2ccccc2F)oc1NCCCn1ccnc1	2	4	0	-1	-3	11	3	35	-36
COc1ccc(Cn2c(CCCO)nc3ccccc32)cc1OC	-3	-3	-1	2	0	29	8	70	-7
Cc1nc([N+](=O)[O-])cn1-c1nc2ccccn2c1[N+](=O)[O-]	-18	-4	2	0	-4	-36	-4	14	-4
Cc1cc(OCC(=O)Nc2ccc3oc(-c4ccncc4)nc3c2)ccc1Cl	-13	11	4	-8	1	-9	2	10	12
O=S(=O)(NCc1cccnc1)c1cccc2nsnc12	6	-2	-1	4	-9	12	6	8	-14
CN(CCOC(=O)c1ccc2c(c1)OCCO2)Cc1ccccc1	19	12	-1	0	0	-3	4	5	-1
CC(=O)C1=C(O)C(=O)N(c2ccc(C(=O)O)cc2)C1c1ccccc1 (centres undefined)	-3	0	2	1	1	-30	-2	9	-5
COC(=O)CC(=O)Cc1nc(N)nc(Nc2ccc(C)c(C)c2)n1	-4	-3	-1	6	-7	-26	?	3	2
CN1CCN(CCCN2c3ccccc3Sc3ccc(Cl)cc32)CC1	-12	-1	5&3	-1	1&1	-20	3&2	10	-2&2
CCOC(=O)C1CCCN(c2nc3ccccc3nc2C(C#N)C(=O)OC(C)COC)C1 (centres undefined)	29	14	7	-8	-5	12	3	14	-5
Cc1ccc(OCC(O)CNS(=O)(=O)c2ccccc2C(=O)O)cc1 (centres undefined)	0	-5	3	-4	-4	-5	4	14	-29
COc1ccccc1N1CCN(CCN2C(=O)CC3(CCCC3)CC2=O)CC1	0	-6	/	-8	/	9	-3	28	/
CC1CN(C2CCN(S(=O)(=O)Cc3ccccc3)CC2)CC(C)O1 (centres undefined)	-7	1	-1	-3	0	-15	-12	3	-27
Cc1ccc(N(CN2C(=O)C3CC=CCC3C2=O)C(=O)c2ccco2)cc1Cl (centres undefined)	9	15	3	1	-2	15	5	-9	-37
O=C1CC(C(=O)O)c2ccccc2N1 (centres undefined)	34	12	2	11	-2	7	?	7	-36
CCOc1nc(SC(C(C)=O)C(=O)Nc2ccccc2)nc(N(C)C)n1 (centres undefined)	56*	34	-3	-6	-9	-48	8	11	-53

Some entries already given, showing only IEC-6 tox and HSF-1 act:
SMILES	IEC-6 tox	HSF-1 act
Cc1ccc(OCC(O)CNS(=O)(=O)c2ccccc2C(=O)O)cc1 (centres undefined)	-4	0
CC1CN(C2CCN(S(=O)(=O)Cc3ccccc3)CC2)CC(C)O1 (centres undefined)	0	-7
COc1ccccc1N1CCN(CCN2C(=O)CC3(CCCC3)CC2=O)CC1	/	0

(cont.)
SMILES	HSF-1 act	HSF1 inhib	HSP90 inh	Platelet DG rel	IEC-6 tox	aSyn UTR inh	HDAC3 inh	AI-2 QS mod	KLF5 inh
CCCCCNc1nc(N2CCCC2)c2c(c1C#N)CCN(C)C2	8	-4	4	0	2	-7	2	13	-23
NC(N)=NC(N)=Nc1cccc(Cl)c1	9	-1	/	-14	/	-3	-6	14	/
CCCN(CC1CC1)c1nc(C)nc(Nc2c(Cl)cc(Cl)cc2Cl)c1Cl	-12	4	/	-1	/	1	2	18	/
COC(=O)C(C)Sc1nc2c(c(=O)n(C)c(=O)n2C)n1CCC(C)C (centres undefined)	?	22	0	1	-4	9	-5	-1	-6
CC1=C(c2ccc(Cl)cc2)[N+](=O)C(C)(C)N1[O-]	-2	-9	4	-1	-3	1	-3	14	10
O=C1NC(=O)C(c2cn(-c3ccccc3)nc2-c2ccc(F)cc2)N1 (centres undefined)	9	3	0	-12	18	28	0	-86*	-8
COc1ccccc1NC(=O)CSc1nnc(-c2ccc(NC(C)=O)cc2)n1C	12	12	2	-1	1	-11	11	91	4
COc1ccc(/C=N/n2cncn2)cc1COc1ccc(NC(C)=O)cc1	?	5	3	1	2	3	5	21	-6
O=C(Nc1cccc2ccccc12)c1ccccc1	37	15	-2	-6	-3	-142	-4	12	-30
CCc1nnc(NC(=O)c2c(O)c3c([nH]c2=O)CCCC3)s1	-1	4	0	11	5	-24	4	22	-41
N#Cc1nc(-c2ccccc2Cl)oc1N1CCCCC1	3	17	0	6	-1	-69	-22	8	-38
Cc1nc2c(c(N3CCOCC3)n1)OCC(=O)N2	-6	-12	0	2	3	43	2	28	7
CSc1nc(Oc2ccc(=O)[nH]n2)nc(N(C)C)n1	5	2	4	2	4	0	-3	30	-2
CCOc1ccc(/C(O)=C2/C(=O)C(=O)N(c3nc(C)c(C)s3)C2c2ccco2)cc1 (centres undefined)	24	20	2	-4	-16	-85	4	26	-16
O=C(O)CCSc1ccc2ccccc2n1	-6&-15	-1&-4	1&-3	-1&-3	1&-1	-5&0	1&0	21&36	-32&-21
OC1(c2ccc(Cl)cc2)CCN(Cc2c[nH]c3ccccc23)CC1	-15	1	/	-1	/	-17	-1	16	/
CCC[C@@H]1C[C@@H](C(=O)N[C@@H](C2O[C@H](SC)[C@H](O)[C@@H](O)[C@H]2O)[C@H](C)Cl)N(C)C1 (some centres undefined)	8	-1	-6	-2	-1	-1	5	-48	1
O=S(=O)(O)c1nc2ccccc2n1Cc1ccc(Cl)cc1Cl	2	-3	-3	-3	-4	22	2	13	-19
CC(NC(=O)CSc1nnc(COc2ccccc2)o1)c1ccccc1 (centres undefined)	-43	-33	1	1	1	7	-4	6	-18
Nc1nnnn1/N=C/c1cccc(Oc2ccccc2)c1	-4	-1	-1	-3	1	4	-2	36	-8

Quoted from the listing, two compounds:
SMILES	HSF-1 act	HSF1 inhib	HSP90 inh	Platelet DG rel	IEC-6 tox	aSyn UTR inh	HDAC3 inh	AI-2 QS mod	KLF5 inh
N#Cc1nc(-c2ccccc2Cl)oc1N1CCCCC1	3	17	0	6	-1	-69	-22	8	-38
Cc1nc2c(c(N3CCOCC3)n1)OCC(=O)N2	-6	-12	0	2	3	43	2	28	7

Additional records
SMILES	HSF-1 act	HSF1 inhib	HSP90 inh	Platelet DG rel	IEC-6 tox	aSyn UTR inh	HDAC3 inh	AI-2 QS mod	KLF5 inh
CCOC(=O)c1c(CN2CCCCC2)oc2ccc(OC)cc12	32&5	0&-8	0&-1	-3&7	1&2	29&23	-7&-15	4&9	-38&3
COc1ccc(CNC(=O)[C@H](C)NC(=O)C2CCN(S(=O)(=O)c3ccc(C)cc3)CC2)cc1	-7	-2	0	-2	-2	9	2	29	-18
CCOc1ccccc1C(=O)NCCCCCC(=O)O	7	-2	-1	-1	2	4	-11	23	-40
COc1ccccc1-c1nnc2sc(COc3ccccc3)nn12	-11	-13	1	5	0	3	-1	28	-5
CCOC(=O)C(C)Sc1nc(-c2cccs2)ccc1C#N (centres undefined)	20	-5	-2	-9	6	-50	-9	6	-13
c1ccc(OCc2nn3c(C4CCCCC4)nnc3s2)cc1	-7	-12	3	5	-2	8	-4	-4	-10
COc1ccc(C(=O)N2CCC(N3CCN(c4ccccc4)CC3)CC2)cc1OC	0	-5	2	0	0	1	-2	9	17
COc1cc(NS(=O)(=O)c2ccc(N)cc2)nc(OC)n1	-8	-3	-3	-7	-1	-10	-2	?	-6
O=C(Nc1ccc2c(c1)OCO2)c1cc2n(n1)C(C(F)(F)F)CC(c1ccccc1)N2 (centres undefined)	15	-3	1	-3	-4	15	-6	-3	-8
C/C(=N\O)c1c(C)c2ccccc2n1C	-5	-7	1	-2	4	-21	0	20	6
COc1ccc(OC)c(C2C(C#N)=C(N)Oc3cc(C)n(Cc4ccccn4)c(=O)c32)c1 (centres undefined)	-22	1	2	12	-1	-26	-1	-4	7
O=C(O)CCCC(=O)N1CCN(C(c2ccccc2)c2ccccc2)CC1	-1	2	4	9	-3	13	-5	20	2
Cc1ccc(-c2nc(-c3nccc4ccccc34)oc2-c2ccccc2)cc1	54*	28	23*	3	9	-137	-6	14	-74
COC(=O)Sc1nc(N2CCOCC2)c2c(c1C#N)CC(C)(C)OC2	-7	-3	3	-2	3	5	-4	14	5
CCCCC[C@H](O)/C=C/[C@@H]1[C@@H](CCCCCCC(=O)O)[C@@H](O)C[C@H]1O	-22	-11	3	12	6	27	-1	13	-26
CCOc1ccc2c(C)nc(NC3=NC(C)(C)C=C(C)N3)nc2c1	0	-8	-3	7	-2	4	-19	37	-21
CCN1CCC[C@H]1CNC(=O)c1c(O)c(Cl)cc(Cl)c1OC	-8&-10	4&-9	5	-2&3	-1	15&-6	6&-7	15&11	-13
O=C(NCCO)C1(c2ccccc2)CCCC1	-3	-1	1	-1	0	6	4	10	-29
Cc1nc2n(c(=O)c1CCN1CCC(c3noc4cc(F)ccc34)CC1)CCCC2	-2	-2	6	16	1	-30	-7	7	-20
Cc1ccc(C)c(C2NC(=O)c3ccccc3N2)c1 (centres undefined)	8	-4	-3	0	63*	-70	2	5	42
Cc1cc(Cn2ccnc2)c(C)cc1Cn1ccnc1	0	-1	1	-5	-1	0	-3	24	-13
COc1ccc(C=NCCC2(O)CC(C)N(C)CC2C)cc1 (centres undefined)	-5	-6	1	/	-4	5	-10	19	2
